# GIV Gai3 FP – inhibitors of GIV peptide binding to Galpha-i3, primary screen, biochemical, fluorescence polarization, FITC-GIV GBA peptide, rat Galphai3. 90 min; hits give low values; scaled: aluminum fluoride 0%, vehicle 100%. percent of control (FP), % (no concentration beside the values). 0.42% of 210,000 active. AID 1224905, 2016;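 active means replicate mean at 85% of control or lower, very high polarization wells dropped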;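 further: wells of about 15 µL received 100 nL stock; the first replicate is given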
# Target sequence (P08753 whole entry, looked up): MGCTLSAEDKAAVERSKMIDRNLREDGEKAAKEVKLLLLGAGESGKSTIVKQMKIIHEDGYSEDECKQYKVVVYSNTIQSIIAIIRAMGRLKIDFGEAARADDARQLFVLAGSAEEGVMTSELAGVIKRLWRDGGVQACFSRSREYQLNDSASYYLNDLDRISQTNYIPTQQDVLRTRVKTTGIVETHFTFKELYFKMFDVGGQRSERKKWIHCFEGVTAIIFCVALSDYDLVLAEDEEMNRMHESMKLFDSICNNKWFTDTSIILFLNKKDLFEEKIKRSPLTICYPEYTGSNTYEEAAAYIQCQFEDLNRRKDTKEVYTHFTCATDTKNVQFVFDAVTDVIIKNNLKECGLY
# The depositor's hits bear a star.
SMILES,GIV Gai3 FP
COC(=O)c1ccc(C2C3=C(CC(c4ccccc4)CC3=O)Nc3ccccc3N2C(=O)C2CC2)cc1 (configuration not stated),100
O=C(NCCc1cnc[nH]1)c1ccccc1NC(=O)c1nsc2ccccc12,100
O=C(Nc1ccccc1C(=O)Nc1ccc(Cl)cc1)c1cccc(S(=O)(=O)N2CCCCCC2)c1,103
CCCc1cc(C2CCCN2Cc2ccc(O)c(OC)c2)no1 (configuration not stated),125
CCOc1ccc(CN2CCCC2c2cc(C)on2)cc1OCC (configuration not stated),111
O=c1c(S(=O)(=O)N2CCCC2)cccn1Cc1cc(F)cc(F)c1,102
Cc1ccc(-n2ncc3c(N4CCN(c5ccc([N+](=O)[O-])cc5)CC4)ncnc32)c(C)c1,108
CN(C)C(=O)c1ccc(CN2CCc3c(c(C(=O)N4CCCC4)nn3C)C2)cc1,110
COc1ccc(C(=O)CSc2nc3ccccc3c(=O)[nH]2)cc1C,99
COc1cccc(-c2[nH]ncc2CN2CCCC(c3nncn3C)C2)c1 (configuration not stated),101
CC(C)CN1C(=O)C2(CCOCC2)Nc2ccccc21,106
Cc1ccc(C2NC(=O)c3c(sc4c3CCCC4)N2)c(O)c1 (configuration not stated),114
CCOc1cccc2c1OC(c1ccc(OC)c(OC)c1OC)N1N=C(c3ccc(C)o3)CC21 (configuration not stated),114
CN(C)S(=O)(=O)c1ccc(-c2noc(C(=O)NC3CCCC3)n2)cc1,104
O=C(Nc1c(F)cc(F)cc1Br)c1cc(S(=O)(=O)NCc2ccc(F)cc2)ccc1F,111
Cc1c(C(=O)Nc2nc3ccccc3s2)sc2ncn(CC(=O)Nc3cccc(C(F)(F)F)c3)c(=O)c12,104
CC(=O)Nc1ccc(S(=O)(=O)n2c(SCc3ccccc3F)nc3ccccc32)cc1Cl,103
CCc1nc(-c2csc(S(=O)(=O)Nc3cccc4c3CCCC4)c2)no1,98
O=CC12c3ccccc3C(c3ccccc31)C1C(=O)N(c3ccccc3[N+](=O)[O-])C(=O)C12 (configuration not stated),108
CC(=O)c1cccc(NC(=O)CSC2=C(C#N)C(c3ccccc3C)C3=C(CCCC3=O)N2)c1 (configuration not stated),107
COc1ccccc1NC(=O)C1OC2OC3(CCCCC3)OC2C2OC3(CCCCC3)OC12 (configuration not stated),102
Cc1ccc(CSc2nnc3c(S(=O)(=O)N4CCCC4)cccn23)cc1,102
CCC1=NN(C(=O)Cc2ccc(C)cc2)C(O)(c2ccc(Br)cc2)C1 (configuration not stated),105
Clc1ccccc1N1CCN(c2ncnc3c2cnn3-c2ccccc2)CC1,119
CCCCCCCCCC(=O)Nc1ccc(C(=O)Nc2cccc3c2C(=O)c2ccccc2C3=O)cc1,114

# A portion from further up, for reference:
SMILES,GIV Gai3 FP
COC(=O)c1ccc(C2C3=C(CC(c4ccccc4)CC3=O)Nc3ccccc3N2C(=O)C2CC2)cc1 (configuration not stated),100
O=C(NCCc1cnc[nH]1)c1ccccc1NC(=O)c1nsc2ccccc12,100
O=C(Nc1ccccc1C(=O)Nc1ccc(Cl)cc1)c1cccc(S(=O)(=O)N2CCCCCC2)c1,103
CCCc1cc(C2CCCN2Cc2ccc(O)c(OC)c2)no1 (configuration not stated),125

# (cont.)
SMILES,GIV Gai3 FP
O=C(Nc1cccc(C(F)(F)F)c1)c1ccc(N2CC3CC(C2)c2cccc(=O)n2C3)c(NC(=O)c2ccc(F)cc2)c1 (configuration not stated),111
O=C(Cc1c(F)cccc1Cl)Nc1cc(C(=O)Nc2ccccc2F)ccc1N1CC2CC(C1)c1cccc(=O)n1C2 (configuration not stated),103
Cc1noc(C2CN(S(=O)(=O)C(C)C)CC23CCOCC3)n1 (configuration not stated),97
CCN(CC)S(=O)(=O)c1ccc2nc(NC(=O)C3CCCC3)sc2c1,101
Cc1ccc(C(=O)CN2C3=NCCCN3c3ccccc32)cc1,113
C=CCNC(=O)C1(c2ccc(NS(=O)(=O)c3ccc(Br)cc3)cc2)CC1,106
COc1ccc(NC(=O)c2ccc3ccnc(N4CCN(c5ccc(OC)cc5)CC4)c3c2)cc1,99
O=C(NCc1ccc(F)c(Cl)c1)c1sc2ncccc2c1-n1cccc1,109
O=C(c1csc(S(=O)(=O)Nc2ccc3c(c2)OCO3)c1)N1CCCC1,103
COc1cc(/C=C\C(=O)Nc2c3c(nn2-c2ccc(C)cc2C)CS(=O)(=O)C3)cc(OC)c1OC,109
CCOC(=O)c1sc2nc(CC(=O)OC)nc(Nc3ccc(F)cc3F)c2c1C,97
CCOc1cc(C2C(C(=O)OC)=CN(Cc3ccc(OC)c(OC)c3)C=C2C(=O)OC)cc(Br)c1O,105
COc1ccc(C2(O)CN(c3ccccc3C)C3=[N+]2CCCC3)cc1 (configuration not stated),109
O=C1/C(=C\c2ccc3c(c2)OCO3)C2=C(C(=O)N(c3ccccc3)C2c2ccc(Br)cc2)N1c1ccccc1 (configuration not stated),110
COc1ccc(N2CCN(S(=O)(=O)c3cc(-c4cc(C(F)(F)F)[nH]n4)sc3C)CC2)cc1,102
COC(=O)C1=C(C(=O)OC)SC(=C2C(=S)C(C)(C)N(C(=O)c3ccc(Cl)cc3Cl)c3ccccc32)S1,115
Cc1onc(-c2ccc(Br)cc2)c1C(=O)N1CCC(C)CC1,104
FC(F)(F)c1cccc(Cn2c3ccccc3c3nc4ccccc4nc32)c1,109
CC1NC(=O)N(C(C)C)C2NC(=O)N(C(C)C)C(c3ccccc3)C12 (configuration not stated),106
c1ccc(N2CCN(c3ccc4nnnn4n3)CC2)cc1,106
COc1ccc(N2C(N)=C(C#N)C(c3cccc([N+](=O)[O-])c3)C3=C2CC(C)(C)CC3=O)cc1 (configuration not stated),116
COc1cc(C2C(C#N)=C(N)OC3=C2C(=O)CC(c2ccco2)C3)cc(OC)c1O (configuration not stated),115
COc1ccc(NC(=O)/C(=C/c2cccc([N+](=O)[O-])c2)NC(=O)c2ccccc2Br)cc1,107
CCC(=O)Nc1cnc(N2CCN(c3ccccc3)CC2)c(C(=O)O)c1,104
O=C(NC1CCCCC1)C1CCN(Cc2noc(-c3ccc(F)cc3)n2)CC1,105
# (list continues)
SMILES,GIV Gai3 FP
COc1ccccc1N(CCOC(=O)c1ccc([N+](=O)[O-])c(C)c1)C1=NS(=O)(=O)c2ccccc21,104
O=C(Nc1ccc2c(c1)OCO2)c1nnc(C2CCN(C(=O)NC3CCCC3)CC2)s1,104
CCOC(=O)c1c(CSc2ccc(CC)cc2)oc2ccc(O)c(CN(C)C)c12,100
O=C(CCc1ccccc1)N1CCN(C(=O)c2cc3cc(Br)ccc3[nH]2)CC1,108
COc1ccc(N2C(=O)NC(=O)/C(=C\c3cc(Br)c(OC)cc3OC)C2=O)cc1,114
CC1(C)CC(=O)c2cnc3c(C(=O)N4CCC(N5CCCCC5)CC4)cnn3c2C1,99
CCOc1ccc(-n2c(SCC(=O)Nc3ncn[nH]3)nc3ccsc3c2=O)cc1,104
O=c1cc(CSc2nc(NC3CCCCC3)c3ccccc3n2)nc2ccccn12,105
O=S(=O)(c1cc(-c2nnc(C3CCC3)o2)co1)N1CCN(c2cccc(Cl)c2)CC1,101
CCc1nc(CC)n2c(=O)n(Cc3nc(C4CC4)no3)nc2c1C,102
CN(C)S(=O)(=O)c1ccc2c(c1)cc(C(=O)NCCC1=CCCCC1)n2Cc1ccncc1,99
CCc1cc2c(N(C)c3ccc(OC)cc3OC)ncnc2s1,105
COc1ccc(Br)cc1C1Nc2ccc(C)cc2[C@H]2OCC[C@@H]12 (some centres not stated),102
C/C(=C\C1=NC(C)(C)Cc2ccccc21)NO,109
Cc1cc(-n2c(SCC(=O)NCc3cccc(Cl)c3)nc3n[nH]c(C)c3c2=N)ccc1Cl,108
COc1ccc(CCNC(=O)CSc2nc(NCC3CCCO3)c3ccccc3n2)cc1OC (configuration not stated),114
Cc1c2c(nn1-c1ccc(SCc3ccc(F)cc3)nn1)CCC2,103
COC(=O)C1=C(N)N(c2ccc(S(N)(=O)=O)cc2)C2=C(C(=O)CC(C)(C)C2)C1c1ccc(OC)cc1 (configuration not stated),101
COc1cccc(-n2c(=S)sc3c2nc(SC)n2c4ccccc4nc32)c1,100
CC1=C(C(=O)OCc2ccccc2)C(c2ccc(C(F)(F)F)cc2)C(C#N)=C(N)O1 (configuration not stated),117
CC1CC(=O)Nc2cc(S(=O)(=O)CCC(=O)NCC3CCCO3)ccc2S1 (configuration not stated),101
CCOC(=O)Cn1c(C)c(CC(Cl)(Cl)Cl)c2c1CC(C)(C)CC2=O,105
CN(CCNC(=O)c1nnc(-c2ccc(S(=O)(=O)N(C)C)cc2)o1)C1CCCCC1,108
CCCCCNC(=O)c1ccc(Sc2ccc(NS(=O)(=O)c3ccccc3)cc2)nc1,110
O=C(c1ccc2ccnc(N3CCN(c4ccccc4F)CC3)c2c1)N1CCN(c2ccccc2)CC1,105
# New compounds follow:
SMILES,GIV Gai3 FP
CCn1cccc1-c1nc(C)c(C(=O)NCCc2ccc(OC)c(OC)c2)s1,107
COCCOC(=O)C1=C(N)OC2=C(C(=O)CC(C)(C)C2)C1c1ccccc1Cl (configuration not stated),114
Cc1nc(-c2cccc(NC(=O)c3cc4cc(Br)ccc4oc3=O)c2)cs1,108
Brc1ccccc1C1Nc2cccc3cccc(c23)N1,116
c1ccc(-c2ccc(-c3nc4nc(-c5ccccc5)c(-c5ccccc5)nn4c3-c3ccccc3)cc2)cc1,108
CCOc1ccc2c(c1)C(=C1SC(C(=O)OC)=C(C(=O)OC)S1)C(=S)C(C)(C)N2C(=O)C1CC1,105
Cc1cc(N2CCCCC2)nc(N2CCN(C(=O)C3CCCC3)CC2)n1,105
CCCCC(C(=O)Nc1ccc([N+](=O)[O-])cc1)N1C(=O)C2C3c4ccccc4C(c4ccccc43)C2C1=O (configuration not stated),114
COc1ccccc1CNC(=O)c1sc2nc(C)nc(N3CCN(c4ccccn4)CC3)c2c1C,103
Cc1ccc(C2C3=C(CC(C)(C)CC3=O)Nc3ccccc3N2C(=O)NC2CCCC2)cc1 (configuration not stated),100
O=C(NCCCN1CCCC1=O)c1ccc(CN2C(=O)C3CCCN3C(=O)c3ccccc32)cc1 (configuration not stated),110
Fc1ccc(-n2cc(-c3ccccc3)c3c(N4CCCC4)ncnc32)cc1,108
CCCS(=O)(=O)c1nc2ccc(NS(=O)(=O)c3cnn(CC)c3)cc2s1,99
O=C(NC1CCCC1)C1CCCN(c2ncc(-c3cccc(F)c3)cn2)C1 (configuration not stated),103
COc1ccc(Br)cc1C1C(N2C(=O)c3cccc([N+](=O)[O-])c3C2=O)C(=O)N1c1ccc(Cl)cc1C (configuration not stated),111
O=C(NC1CCCCC1)N1CCN(c2cc(-c3ccc(F)cc3)ncn2)CC1,101
CC(=O)Nc1c(C)nn(-c2ccc(Cl)cc2)c1N1CCC(C(=O)NC2CCCCC2)CC1,107
COC(=O)c1cccc(NC(=O)/C(=C\c2ccc3c(c2)OCO3)NC(=O)c2ccccc2OC)c1,120
CCOC(=O)c1cnc2c(C)cc(C)cc2c1Nc1ccccc1,100
CC(C)C12CN3CC(C(C)C)(CN(C1)C3c1cc(Br)ccc1O)C2=O (configuration not stated),110
O=C(O)CCCN1C(=O)C(=O)/C(=C(/O)c2ccccc2)C1c1ccc(F)cc1 (configuration not stated),106
CCCn1c(SCc2nc(-c3ccc(OCC)cc3)no2)nc2cc3c(cc2c1=O)OCO3,106
COC(=O)Nc1ccc(S(=O)(=O)N2CCC(C(=O)Nc3ccc(F)cc3)CC2)cc1,108
O=C(Cn1cnc2sc3c(c2c1=O)CCCC3)NCCC(=O)N1CCN(c2cccc(Cl)c2)CC1,99
Cc1ccc(Cc2nnc(-c3ccc(NC(=O)Nc4ccc(F)cc4)cc3)o2)cc1,101

# Grouped by structure: the compounds so far with a nitro group on carbon
SMILES,GIV Gai3 FP
Cc1ccc(-n2ncc3c(N4CCN(c5ccc([N+](=O)[O-])cc5)CC4)ncnc32)c(C)c1,108
O=CC12c3ccccc3C(c3ccccc31)C1C(=O)N(c3ccccc3[N+](=O)[O-])C(=O)C12 (configuration not stated),108
COc1ccc(N2C(N)=C(C#N)C(c3cccc([N+](=O)[O-])c3)C3=C2CC(C)(C)CC3=O)cc1 (configuration not stated),116
COc1ccc(NC(=O)/C(=C/c2cccc([N+](=O)[O-])c2)NC(=O)c2ccccc2Br)cc1,107
COc1ccccc1N(CCOC(=O)c1ccc([N+](=O)[O-])c(C)c1)C1=NS(=O)(=O)c2ccccc21,104
CCCCC(C(=O)Nc1ccc([N+](=O)[O-])cc1)N1C(=O)C2C3c4ccccc4C(c4ccccc43)C2C1=O (configuration not stated),114
COc1ccc(Br)cc1C1C(N2C(=O)c3cccc([N+](=O)[O-])c3C2=O)C(=O)N1c1ccc(Cl)cc1C (configuration not stated),111

# (next part)
SMILES,GIV Gai3 FP
CC(C)CCn1c(SCc2nc(-c3ccccc3)no2)nc2cc3c(cc2c1=O)OCO3,107
Cc1cc(NC(=O)CCc2nc(CSc3nc4cc(C)c(C)cc4[nH]3)no2)no1,104
Cc1cccc(NC(=O)c2cc(S(=O)(=O)NC3CCCCC3)ccc2F)c1C,109
CC(C)NS(=O)(=O)c1cc(-c2nnc(C3CC3)o2)cs1,102
CCOCCCNC(=O)c1ccc(-c2nc3ccccc3n(CC(C)C)c2=O)cc1,99
CC1(C)CC(=O)C2=C(C1)NC1=C(C(=O)CC(C)(C)C1)C2c1ccc(Cl)cc1Cl,112
O=S(=O)(NCCCO)c1ccc2c(c1)C(=NO)c1cc(S(=O)(=O)NCCCO)ccc1-2,105
O=S(=O)(c1cc(-c2nnc(C3CCC3)o2)co1)N1CCN(c2ccc(Cl)cc2)CC1,106
COc1ccc(-c2nc3c4cc(I)ccc4c4ccc(I)cc4c3[nH]2)cc1,110
CCc1noc(-c2cccn2CC#N)n1,105
Cn1c(=O)c(=O)n(CC(=O)NC2CCCc3ccccc32)c2cccnc21 (configuration not stated),107
CCN(CC)c1ccc(C2N(C(=O)c3ccccc3)CCN2C(=O)c2ccccc2)cc1,104
CCc1cc(C2CCCN2S(=O)(=O)c2ccccc2C)on1 (configuration not stated),104

# High-throughput results: PubChem, ICCB-Longwood Screening Facility, Harvard Medical School

# These rows are one share of the data; rates above refer to the full screens.
